# Assay outcomes (PubChem)
# Cruzain inh Det – cruzain (T. cruzi) inhibition with detergent. P25779. purified cruzain, Z-FR-AMC fluorescence, 0.01% Triton. Potency, µM, without a hit: max response, negative = inhibition, usual class: inhibitors. actives 0.43% (n = 200,000). AID 1478;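 note: plate controls were neutral wells for no effect and buffer without enzyme for full effect; nearly all actives have a fitted effect of over 40% in size; top concentration of the series not given in the record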
# Target sequence (P25779 123-467 limits assumed): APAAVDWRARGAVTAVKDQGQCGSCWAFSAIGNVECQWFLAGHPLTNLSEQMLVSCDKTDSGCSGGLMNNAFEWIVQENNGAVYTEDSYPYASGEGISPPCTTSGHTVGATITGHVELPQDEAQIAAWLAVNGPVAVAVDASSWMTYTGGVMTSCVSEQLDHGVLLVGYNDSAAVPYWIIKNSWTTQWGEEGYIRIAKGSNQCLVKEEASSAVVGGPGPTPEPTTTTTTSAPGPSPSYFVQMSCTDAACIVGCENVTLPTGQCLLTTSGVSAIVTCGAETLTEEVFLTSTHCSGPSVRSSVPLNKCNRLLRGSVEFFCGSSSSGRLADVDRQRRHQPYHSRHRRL
#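 In this qHTS format, compounds are incubated with 1.5 nM cruzain for 15 min at room temperature before 2 uM Z-FR-AMC is added. Release of AMC is followed at 360/450 nm, and progress is taken as the 60 s fluorescence difference.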
# NS1 inh – inhibitors of influenza NS1 protein function; S. cerevisiae slowed by influenza A NS1, growth recovery by OD600; Potency, µM (series often up to 46.1 µM), inactives show at the highest dose activity, positive = more growth; actives 0.4% (n = 270,000); AID 2326; active means well fitted rising curve with a large enough effect; inconclusive means small, poorly fitted or top-dose-only effect; inactive means no such curve, though single readings can be large or run the other way; note: nearly all actives have a fitted effect of over 50% in size
#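 Compounds were scored for reversing the slow growth caused by influenza A NS1 in S. cerevisiae, measured by optical density at 600 nm. Assay medium contained 2% galactose at pH 6.0; NS1-free yeast of the same strain were the positive control.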
# LASV entry inh – blocks Lassa virus binding to or entry into cells. Lassa virus pseudotype entry inhibition, cell reporter; control for the full effect not named in the record. Potency, µM (titrated, usually from 37.9 µM), inactives show at the highest dose activity change, negative = inhibition, actives largely listed as inhibitors. actives 1.2% (n = 300,000). AID 540256; active means well fitted inhibition curve with a large enough effect; inconclusive means small, poorly fitted or top-dose-only effect, or effect the other way; inactive means flat fitted curve, though single readings scatter; tested in HEK293 cells; note: % is set by controls: 0 for no effect and ±100 for the full control effect; nearly all actives have a fitted effect of over 50% in size; luciferase read-out
# StopGo reporter – lowers the luciferase signal of an FMDV 2A StopGo reporter; human cells with a luciferase reporter of 2A StopGo recoding; control for the full effect not named in the record; AID 1159524; Potency, µM (doses to about 57.9 µM), for the others: top-dose signal change, negative = less light; actives 1.2% (n = 410,000); active = well fitted falling curve with a large enough effect; inconclusive = small, poorly fitted or top-dose-only effect; inactive = no such curve, though single readings can be large or run the other way; tested in HEK293T cells; note: % is set by controls: 0 for no effect and ±100 for the full control effect; nearly all actives have a fitted effect of over 45% in size; luciferase light after 4 h
# SARS PLpro yeast – blocks SARS-CoV papain-like protease in a yeast assay; actives 0.19% (n = 330,000); AID 485353; S. cerevisiae expressing SARS-CoV PLpro, growth rescue; control for the full effect not named in the record; Potency, µM (top dose mostly 32.9 µM), without a hit: top-dose activity, positive = growth rescue; active means well fitted rising curve with a large enough effect; inconclusive means small, poorly fitted or top-dose-only effect; inactive means no such curve, though single readings can be large or run the other way; note: 0% is about no effect; nearly all actives have a fitted effect of over 55% in size; growth read by luminescence after 48 h
# MARV entry inh – blocks Marburg virus binding to or entry into cells | Marburg virus pseudotyped entry inhibition, cell reporter; control for the full effect not named in the record; about a third of the inactives were read at about 46 µM | Potency, µM (highest dose often 37.8 µM), for inactives: at the top dose activity change, negative = inhibition, hits mostly inhibitors | actives 1.8% (n = 300,000) | AID 540276; active = well fitted inhibition curve with a large enough effect; inconclusive = small, poorly fitted or top-dose-only effect, or effect the other way; inactive = flat fitted curve, though single readings scatter; tested in HEK293 cells; about a fifth of its hits are not listed in these tables; note: % is set by controls: 0 for no effect and ±100 for the full control effect; luciferase read-out
# RE007 growth inh – less growth of the S. pombe RE007 Vpr strain; S. pombe RE007 Vpr strain, BacTiter-Glo ATP luminescence, 24 h; control for the full effect not named in the record; Potency, µM (doses to about 92.2 µM), for the others: at the top dose activity change, negative = less growth; actives 0.21% (n = 360,000); active = well fitted falling curve with a large enough effect; inconclusive = small, poorly fitted or top-dose-only effect; inactive = no such curve, though single readings can be large or run the other way;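 note: % is set by controls: 0 for no effect and ±100 for the full control effect; nearly all actives have a fitted effect of over 50% in size; the assay follows cell death caused by Vpr and the record does not say whether a fall means rescue or toxicity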
#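 Fission yeast RE007 carrying one integrated HIV-1 vpr copy, seeded at OD 0.01 in PMG+AL medium with 23 nL pinned compound. Grown 24 h at 30 degrees; viability read by BacTiter-Glo luminescence after 5 min.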
# Cruzain inh noDet – cruzain (T. cruzi) inhibition without detergent. P25779. purified cruzain, Z-FR-AMC fluorescence, no detergent. Potency, µM, without a hit: max response, negative = inhibition, most hits filed as inhibitors. actives 2.3% (n = 200,000). AID 1476;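 note: plate controls were enzyme without inhibitor for no effect and buffer without enzyme for full effect; nearly all actives have a fitted effect of over 40% in size; top concentration of the series not given in the record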
#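 Purified cruzain at 1.5 nM, pre-incubated 15 min with compound at room temperature in 100 mM sodium acetate pH 5.5, 5 mM DTT, 0.00005% Triton X-100. Reaction started with 2 uM Z-FR-AMC; AMC fluorescence increase over 60 s gives rate.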
# Numbers without * were called inactive; ? = inconclusive; / = not tested or not shown; & = joins results of further samples; [ ] = remark or other dose. Unless noted, calls come from the whole dose curve; as a rule, active = well fitted curve in the direction sought with a large enough effect; inconclusive = small, poorly fitted or top-dose-only effect, or another doubt; inactive = no such curve, though single readings can be large; an effect the other way counts as inactive or inconclusive. Potency is the fitted concentration of half-maximal effect. Rows were taken by chance. About 4.5% of those tested had a hit in this group.
Molecule	Cruzain inh Det	NS1 inh	LASV entry inh	StopGo reporter	SARS PLpro yeast	MARV entry inh	RE007 growth inh	Cruzain inh noDet
Cc1ccc(-c2nc(S(=O)(=O)c3ccc(C)cc3)c(SCC(=O)NC3CCCCC3)o2)cc1	0.2%	/	1%[46.1 µM]	16%	/	-5%[46.1 µM]	/	1%
COc1ccc(CNC(=O)[C@H](C)N2C(=O)N3CCc4c([nH]c5ccccc45)[C@@]3(C)C2=O)cc1OC	/	15%	/	32µM*	2%	/	6%	/
Cc1cc(=S)c2ccccc2[nH]1	/	-7%	-9%[46.1 µM]	-5%	-10%	?	11%	/
COc1ccc(CCNC(=O)Cn2cnc3c(cnn3C(C)(C)C)c2=O)cc1OC	5.4%	-8%	-2%	-3%	-1%	7%	-26%	14%
CCN1CCN(Cc2ccc(NC(=O)c3ccc(C)c(NC(=O)c4nccnc4N)c3)cc2C(F)(F)F)CC1	/	-8%	/	-3%	1%	/	-5%	/
Cc1ccccc1NC(=O)COc1ccc(Br)cc1CNCCCO	/	2%	/	-11%	1%	/	10%	/
CC(C)C[C@H](NS(=O)(=O)c1ccc(Br)cc1)C(=O)O	9.3%	3%	13%	6%	15%	0%	5%	-7%
COc1ccc(CCNC(=O)c2cc3c(F)cccc3s2)cc1OC	/	-46%	?	?	-5%	?	-7%	/
COc1cc([N+](=O)[O-])ccc1NC(=O)Nn1cnnc1	/	-3%	/	-21%	0%	/	-1%	/
Cc1cc(C)cc(C(=O)NCCN2CCOCC2)c1	/	16%	-5%	-1%	-1%	?	-14%	/

# Whole records from above. Values in the order: Cruzain inh Det	NS1 inh	LASV entry inh	StopGo reporter	SARS PLpro yeast	MARV entry inh	RE007 growth inh	Cruzain inh noDet
# `Cc1cc(=S)c2ccccc2[nH]1` across the screens: /	-7%	-9%[46.1 µM]	-5%	-10%	?	11%	/
# `CCN1CCN(Cc2ccc(NC(=O)c3ccc(C)c(NC(=O)c4nccnc4N)c3)cc2C(F)(F)F)CC1` across the screens: /	-8%	/	-3%	1%	/	-5%	/
# `Cc1ccc(-c2nc(S(=O)(=O)c3ccc(C)cc3)c(SCC(=O)NC3CCCCC3)o2)cc1` across the screens: 0.2%	/	1%[46.1 µM]	16%	/	-5%[46.1 µM]	/	1%
# `COc1cc([N+](=O)[O-])ccc1NC(=O)Nn1cnnc1` across the screens: /	-3%	/	-21%	0%	/	-1%	/

# 2 of the compounds above, field by field:
molecule: CCN1CCN(Cc2ccc(NC(=O)c3ccc(C)c(NC(=O)c4nccnc4N)c3)cc2C(F)(F)F)CC1
  Cruzain inh Det: /; NS1 inh: -8%; LASV entry inh: /; StopGo reporter: -3%; SARS PLpro yeast: 1%; MARV entry inh: /; RE007 growth inh: -5%; Cruzain inh noDet: /
molecule: Cc1ccccc1NC(=O)COc1ccc(Br)cc1CNCCCO
  Cruzain inh Det: /; NS1 inh: 2%; LASV entry inh: /; StopGo reporter: -11%; SARS PLpro yeast: 1%; MARV entry inh: /; RE007 growth inh: 10%; Cruzain inh noDet: /

# (listing goes on)
Molecule	Cruzain inh Det	NS1 inh	LASV entry inh	StopGo reporter	SARS PLpro yeast	MARV entry inh	RE007 growth inh	Cruzain inh noDet
CCCCNC(=O)C1CCCN(Cc2nc(-c3ccc(Cl)cc3)oc2C)C1 (configuration not stated)	0.4%	/	-6%[46.1 µM]	?	/	11%[46.1 µM]	/	-1%
Cc1ccc(C)c(Cn2c3ccccc3c3cnn(CC(=O)N4CCCCC4)c(=O)c32)c1	-1.3%	/	-14%[46.1 µM]	-6%	/	11%[46.1 µM]	/	21%
CC(C)C[C@H](NC(=O)OC(C)(C)C)C(=O)N1CCC(C(=O)N[C@@H](Cc2c[nH]c3ccccc23)C(=O)O)CC1	/	6%	0%	9%	1%	4%	-1%	/
Cc1c(C)n(Cc2ccc(Cl)cc2)c2ccc(C(=O)NCCN3CCOCC3)cc12	/	15%	/	-16%	2%	/	3%	/
Cc1ccc(NC(=O)CSc2ccc3nnc(-c4cccnc4)n3n2)cc1	/	-1%	/	-7%	?	/	9%	/
CCCOc1ccc(C2c3c(oc4cc(C)c(C)cc4c3=O)C(=O)N2CCCN(C)C)cc1 (configuration not stated)	-5.1%	-31%	0%	-7%	6%	-4%&-4%	8%	?
COc1ccc(CNc2ccccc2SC)cc1OC	-2.6%	-4%	-9%	/	-8%	-26%	-5%	6%
COc1cc(NC(=O)c2ccccc2-n2cnnn2)cc(OC)c1	/	/	6%	-8%	3%	?	-25%	/
CCN(CC)/C(N)=N/c1nc(C)cc(C)n1	/	1%	12%	-5%	0%	-6%[46.1 µM]	17%	/
CCc1c(C#N)c(SCCC(=O)Nc2cccc(OC)c2)nc2c1C(=O)CC(C)(C)C2	-7.7%	2%	-29%	-22%	-4%	-26%	1%	-6%

Molecule	Cruzain inh Det	NS1 inh	LASV entry inh	StopGo reporter	SARS PLpro yeast	MARV entry inh	RE007 growth inh	Cruzain inh noDet
NC(=O)C(=O)NN=C1C2CC3CC(C2)CC1C3	/	8%	1%	-15%	-6%	?	3%	/
Cc1cccc(OP(=O)(Nc2cccnc2)Oc2cccc(C)c2)c1	-5.0%	-17%	-10%	-3%	4%	-11%	-17%	8%
COc1ccccc1CN1CC(C(=O)N(CCO)Cc2cccs2)CCC1=O (configuration not stated)	/	-1%	18%[46.1 µM]	-1%	-5%	7%[46.1 µM]	-10%	/
c1ccc(CSCc2nc3ccccc3[nH]2)cc1	-0.6%	-19%	?	24%	-21%	?	3%	3%
O=C(CCCc1ccccc1)Nc1cccnc1Cl	/	1%	0%	71%[activator]	0%	?	7%	/
COc1ccc(C(=O)Nc2ccc3nc(SCc4ccc(C)cc4)sc3c2)cc1	-3.0%	/	-8%[46.1 µM]	-24%	/	-3%[46.1 µM]	/	-2%
COc1cccc(-n2nnnc2SCC(=O)NCCc2ccccc2)c1	-1.7%	-13%	-15%	-23%	-1%	14%	-2%	-1%
C=CCn1c(N)c(S(=O)(=O)c2cccs2)c2nc3ccccc3nc21	-10%	-25%	-11%	30%	-5%	-10%	14%	29%
Cc1ccc(C2C(C#N)=C(N)Oc3c2oc(CO)cc3=O)o1 (configuration not stated)	-1.4%	5%	-24%	-5%	11%	3%	-17%	-8%
CCc1noc2c1/C(=N\O)CC(c1ccccc1)C2 (configuration not stated)	4.5%	-2%	-4%	?	-2%	2%	0%	8%

# Values run as follows: Cruzain inh Det, NS1 inh, LASV entry inh, StopGo reporter, SARS PLpro yeast, MARV entry inh, RE007 growth inh, Cruzain inh noDet
Cc1ccc(S(=O)(=O)N2CCOCC2)cc1NC(=O)CNCC1CCCCC1
    /, /, -5%, -25%, 2%, -1%, -12%, /
COc1ccc(C=NC(CO)C(O)c2ccc([N+](=O)[O-])cc2)cc1 (configuration not stated)
    2.0%, 10%, 8%, -5%, -3%, 6%[46.1 µM], -8%, -6%
CC(C)c1ccc(NC(=O)c2ccc(NC(=O)CCS(=O)(=O)c3cccs3)cc2)cc1
    -4.0%, /, 26%[46.1 µM], 7%, /, ?, /, 32µM*
O=C(c1ccc(Cl)c([N+](=O)[O-])c1)N(Cc1ccccc1)C1CCS(=O)(=O)C1 (configuration not stated)
    -1.6%, 2%, -1%, -3%, 9%, -1%, 1%, -9%
COc1ccc(S(=O)(=O)N(C)CC(=O)Nc2ccc(C)cc2)cc1OC
    /, 0%, /, -22%, -1%, /, -20%, /
Cc1ccc(C(=O)CSc2cc(C)[nH]c(=O)n2)cc1
    /, 16%, /, 48%[activator], -6%, /, -10%, /
O=c1c2c(nc3nc(CCc4ccccc4)[nH]n13)CCC2
    -2.2%, -3%, -2%, 9%, 0%, 15%, -10%, 9%
COc1ccc(-c2cc(C(=O)OC(C)C(=O)Nc3c(C)n(C)n(-c4ccccc4)c3=O)c3ccccc3n2)cc1 (configuration not stated)
    -12%, -10%, 15%, 4%, -76%, -10%, -9%, ?
COc1cc(OC)c(/C=N/NC(=O)Cn2nc([N+](=O)[O-])cc2C)c(OC)c1
    /, 9%, 8%, 9%, 3%, ?, 6%, /
O=C(/C=C/c1ccco1)Nc1ccc(Oc2ccccc2)cc1
    -3.2%, -48%, ?, -11%, -12%, ?, 3%, -6%
O=C(NCC(=O)N1CCN(c2ccccc2O)CC1)C1CCCCC1
    /, /, -13%, 7%, -6%, 4%, 11%, /
COC(=O)Cn1c(C2CC(=O)N(c3c(C)cccc3C)C2)nc2ccccc21 (configuration not stated)
    -1.5%, /, 10%[46.1 µM], -29%, /, 6%[46.1 µM], /, -8%
Cc1ccc(N2CCNCC2C)cc1 (configuration not stated)
    /, /, 5%[46.1 µM], -5%, /, ?, -16%, /
COc1ccc(-c2cn(-c3ccc(C)cc3)c(=O)n2CC(=O)Nc2cccc(F)c2)cc1
    4.0%, 0%, -1%, 28%, 5%, 6%, -26%, -18%
Cc1cccc(N2CCN(C(=O)C3CCCN(S(=O)(=O)c4ccc(Br)s4)C3)CC2)c1C (configuration not stated)
    -2.6%, /, ?, ?, /, ?, /, -6%
Cc1cccc(NC(=S)N/N=C/c2ccc([N+](=O)[O-])s2)c1
    -13%, -139%, 16µM*, -12%, -34%, ?, -16%, -14%
Fc1ccccc1CN(CCN1CCOCC1)C(=S)Nc1ccccc1Cl
    /, /, 4%, -16%, 0%, ?, 10%, /
COc1ccc(CC(=O)Nc2ccc(C(=O)Nc3nccs3)cc2)cc1OC
    /, /, 14%, -15%, 0%, -13%[46.1 µM], 8%, /
CC(=O)c1ccc(Nc2cc(C)nc3c(C)cc(C)cc23)cc1
    /, /, ?, -8%, -1%, 4.1µM*, -2%, /
CC(=O)c1c(C)[nH]c(C(=O)CSc2nnc(-c3ccccc3)n2Cc2ccc3c(c2)OCO3)c1C
    2.6%, 3%, -21%, -23%, -1%, ?, 1%, 12%
COc1cc(/C=N/O)cc(Br)c1OCc1ccc(Cl)cc1
    -16%, -9%, ?, -5%, -2%, ?, 4%, -9%
